Screening results (PubChem BioAssay)
INS promoter inh – inhibitors of insulin promoter-driven GFP, primary screen, imaging, TRM-6 cells (human fetal islet line), eGFP reporter, cell count. inhibition, % at 2 µM. reporter expression induced with tamoxifen. hit rate 0.9% among 130,000;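 active = inhibition above the mean plus 3 SD, with well images judged a real hit on visual review, cut at about 60% in these data, passing the limit was not always enough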
GALR2 ag – GALR2 receptor agonists, primary screen, cell-based. hit rate 0.48% among 140,000. Galanin receptor type 2 (Homo sapiens), O43603. activation, %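 (tested at 5 µM)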. GALR2-expressing cells, agonist activation read-out;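 active = above mean plus 3 SD of all compounds, about 5% in these data, not always enough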;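 also: 0% = vehicle buffer wells and 100% = reference agonist at full effect; tested in CHO reporter cells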
RGS16-Gao HTS – modulators of RGS16 binding to Galphao, primary screen, biochemical, human proteins, multiplexed bead flow cytometry; bead-based flow cytometry RGS16-Galphao binding, fluorescence; actives lie on both sides; Regulator of G-protein signaling 16 (Homo sapiens) + Guanine nucleotide-binding protein …; AID 1441, 2008; hit rate 0.38% among 220,000; binding response (% of control), % at 10 µM;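 active = below 25% or above 175%, edge rows of some plates excepted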;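 also: Galphao activated by GDP with aluminum fluoride before binding; 100% = wells without compound and 0% = beads without RGS; some results beyond the cut were filed as inactive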
PKD1 kinase inh – inhibitors of human PKD1 kinase, biochemical, fluorescence polarization. hit rate 0.056% among 200,000. PKD1 kinase fluorescence polarization assay. inhibition, %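 (about 10 µM by stock and volumes)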;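 active = inhibition of 50% or more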;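 also: controls were vehicle for no effect and a reference inhibitor for full effect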
Target sequence (Q15139 whole entry, looked up): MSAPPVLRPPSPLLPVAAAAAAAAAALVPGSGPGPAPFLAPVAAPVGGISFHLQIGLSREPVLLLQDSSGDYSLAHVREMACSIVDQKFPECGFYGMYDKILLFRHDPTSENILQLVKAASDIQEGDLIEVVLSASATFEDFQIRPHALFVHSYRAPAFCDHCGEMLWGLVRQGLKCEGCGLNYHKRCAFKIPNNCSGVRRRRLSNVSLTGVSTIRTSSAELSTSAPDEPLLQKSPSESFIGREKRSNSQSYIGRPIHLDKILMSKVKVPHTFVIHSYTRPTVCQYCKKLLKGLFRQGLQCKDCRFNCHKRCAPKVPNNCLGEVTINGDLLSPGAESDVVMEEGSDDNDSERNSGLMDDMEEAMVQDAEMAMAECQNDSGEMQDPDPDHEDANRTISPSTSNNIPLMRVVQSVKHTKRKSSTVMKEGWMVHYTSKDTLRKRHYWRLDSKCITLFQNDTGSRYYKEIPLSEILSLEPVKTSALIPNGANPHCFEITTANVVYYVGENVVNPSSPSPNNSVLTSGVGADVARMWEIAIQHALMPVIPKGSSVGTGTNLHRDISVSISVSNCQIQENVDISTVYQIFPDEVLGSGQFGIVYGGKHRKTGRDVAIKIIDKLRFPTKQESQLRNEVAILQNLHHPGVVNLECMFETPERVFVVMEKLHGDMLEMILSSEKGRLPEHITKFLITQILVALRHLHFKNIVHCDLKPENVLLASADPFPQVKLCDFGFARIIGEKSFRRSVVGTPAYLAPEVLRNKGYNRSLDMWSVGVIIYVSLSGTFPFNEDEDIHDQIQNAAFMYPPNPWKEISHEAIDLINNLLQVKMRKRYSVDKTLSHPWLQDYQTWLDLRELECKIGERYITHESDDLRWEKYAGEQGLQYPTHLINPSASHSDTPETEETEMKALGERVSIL
HSV replic up – enhancers of HSV replication in host cells, fold increase, host cell viability. hit rate 0.005% among 220,000. HSV replication augmentation in cells. maximum fold increase;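 active = peak rise of 1.5-fold or more in the series; tested in PC3 cells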;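 also: first round at 10 µM; read as green reporter fluorescence; hits show the peak of a series up to 25 µM; 1 = signal of infected wells without compound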
INS promoter inh cell count – also measured in INS promoter inh; calls as there; normalized cell count, %; measured here: cell count, toxicity; reference of the scale not given here;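 cells exposed to compound for 48 h; stained nuclei by imaging scaled within each plate; lower means fewer cells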
HSV replic up primary fold – further read-out of HSV replic up, marked with its call; fold increase; compound at 10 µM; measured here: primary screen fold increase 10 uM; tested in PC3 cells;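 GFP signal in the first replicate; 1 = infected wells without compound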
Starred values were filed as active, the others as inactive; i = inactive; · = no result given.

Second line of a record – INS promoter inh | INS promoter inh cell count | GALR2 ag | RGS16-Gao HTS | PKD1 kinase inh | HSV replic up | HSV replic up primary fold
O=C(CN1c2cccc3cccc(c23)S1(=O)=O)N1CCOCC1
  -8 | 109 | -2.1 | 102 | -18 | i | 1.2
CCSc1nc2c([nH]c3ccccc32)c(=O)n1C
  · | · | -5.2 | 102 | 13 | i | 1.1
Cc1c(C(=O)NCCSCc2c(F)cccc2Cl)cnn1-c1ccc(Cl)cc1
  · | · | · | 108 | · | i | 1
CCOC(=O)c1ccc(N2C(=O)C3C(C2=O)C(C(=O)c2ccc(Cl)cc2)N2CCCC32)cc1 (centres undefined)
  38 | 97 | -1.1 | 86 | -4 | · | ·
CCCCCC(O)(CCN1CCCCC1)c1ccc(OCC)cc1 (centres undefined)
  -19 | 83 | · | 102 | 2 | i | 0.86
Cc1ccc(NC(=O)CC2S/C(=N/N=C3\CCCc4ccccc43)NC2=O)cc1 (centres undefined)
  43 | 124 | -0.5 | 101 | -3 | i | 0.86
Nc1nc(SCC(=O)Nc2cc(C(F)(F)F)ccc2N2CCOCC2)n[nH]1
  -136 | 108 | · | 16* | -1 | i | 0.89
CCN(CC)C(=O)C(C)OC(=O)COc1ccc(Cl)cc1C (centres undefined)
  · | · | -0.9 | 99 | -10 | i | 0.58
CC(C)OC(=O)NCCOC(=O)Nc1ccc(Cl)c(Cl)c1
  -419 | 45 | -1.9 | 107 | 11 | i | 0.94
CCOC(=O)c1cc(C)n(Cc2ccc(OCC)c(OC)c2)c1C
  -86 | 111 | -2.4 | 102 | -6 | i | 0.88
CC(=O)Oc1ccc(NC(=O)Cc2ccccc2)c(C(=O)O)c1
  -57 | 70 | · | 104 | -3 | i | 0.98
COc1cc(NC(=S)N2CCCC(CO)C2)cc(OC)c1 (centres undefined)
  -12 | 39 | · | 99 | -9 | i | 0.99
CC(=O)c1ccccc1OCCCN1CCCCC1
  · | · | -2.3 | 99 | -6 | i | 0.77
N#Cc1c(C(F)(F)F)cc(-c2cccc(Cl)c2)[nH]c1=O
  · | · | -0.6 | 105 | -16 | i | 0.92
C/C(=N/NC(=O)Cc1cccc2ccccc12)c1cccs1
  · | · | -1.5 | 109 | -3 | i | 0.69
CCOc1ccc(C)cc1S(=O)(=O)Nc1ccc(Cl)cn1
  25 | 106 | -0.8 | 105 | 3 | i | 1.3
CCCC(=O)Nc1ccc(C(=O)Nc2nc(CC(=O)OCC)cs2)cc1
  15 | 101 | -2.0 | 108 | -1 | i | 0.97
CCC(Sc1nc2ccc(N)cc2s1)C(=O)Nc1nccs1 (centres undefined)
  0 | 165 | 0.3 | 103 | 3 | i | 0.73
Cc1[nH]c(=O)[nH]c(=O)c1S(=O)(=O)N1CCN(c2cccc(Cl)c2)CC1
  -51 | 53 | -0.5 | 105 | -10 | i | 1
CC(C)CCNC(=O)C(NS(=O)(=O)c1ccc2c(c1)c(=O)n(C)c(=O)n2C)c1ccccc1 (centres undefined)
  · | · | -0.9 | 104 | -14 | · | ·
COc1ccc(N2CCN(C(=O)CCCSc3nc4ccccc4[nH]3)CC2)cc1
  0 | 93 | -0.6 | 102 | -1 | i | 0.98
CC(C)(C)C(=O)Nc1nc2c(s1)COc1ccccc1-2
  · | · | -0.8 | 100 | -5 | i | 0.91
COC(=O)C(C)Sc1nnc(Cc2cc(=O)[nH]c(=O)[nH]2)n1-c1cccc(OC)c1 (centres undefined)
  · | · | -1.9 | 103 | -12 | i | 0.97
COc1cc([C@H]2[C@@H]3CCCC[C@]3(O)CCN2Cc2ccccc2F)ccc1O
  · | · | 0.1 | 93 | 2 | i | 1.1
CN(C)Cc1c(O)ccc2occ(C(=O)c3ccccc3)c12
  -3 | 130 | -3.5 | 90 | 0 | i | 0.79
CCn1c(=O)c2c(nc3n2CCS3)n(C)c1=O
  -23 | 102 | -2.5 | 104 | 2 | i | 1
CCCOc1ncnc2c1[nH]c1ccccc12
  35 | 114 | -1.5 | 117 | 5 | · | ·
O=C1NC(c2ccccc2)=C(c2ccccc2)C1=O
  -7 | 90 | -1.7 | 252 | 1 | i | 0.94
O=C(NNc1ccc(Cl)cc1)c1sccc1Cl
  · | · | · | 100 | · | i | 1
O=c1c2c(n3nnnc3n1Cc1ccccc1)-c1ccccc1CC21CCCC1
  29 | 141 | -0.2 | 108 | 0 | i | 0.89
N/C(=N\OC(=O)CCc1ccccc1)c1cccc(Br)c1
  · | · | -1.5 | 102 | 16 | i | 0.85
Oc1ccccc1C=NCC(O)c1ccccc1 (centres undefined)
  -19 | 124 | -1.1 | 105 | 8 | i | 1
CCOc1ccc(C(=O)Nc2ccc(S(=O)(=O)N3CCOCC3)cc2)cc1OCC
  42 | 96 | -0.9 | 139 | -7 | i | 0.97
Cc1ccc(S(=O)(=O)Oc2ccc(/C=N/NC(=O)c3c(Cl)cnn3C)cc2)cc1
  38 | 109 | -1.1 | 92 | -9 | i | 0.8
CN(C)/C=N/c1sc2c(c1C#N)CCC2
  · | · | -2.8 | 104 | -9 | i | 0.86
COc1cc(C(=O)Nc2sc(C)c(C)c2C(=O)O)cc(OC)c1OC
  · | · | · | 105 | -6 | i | 1
CCN(CC)c1nc2ccccc2c(N)c1-c1ccccc1
  -49 | 18 | -1.5 | 175 | -3 | i | 0.99
Cc1cccc(C)c1Nc1ncnc(N)c1[N+](=O)[O-]
  · | · | -0.1 | 107 | -6 | · | ·
COc1ccc(CC2(CO)CCN(Cc3cnn(C)c3)CC2)cc1
  · | · | · | 140 | -5 | i | 0.96
CCc1cccc2c(C(=O)COC(=O)c3ccccc3)c[nH]c12
  9 | 46 | -0.7 | 151 | 5 | i | 0.91

Part of the list above, field by field:
N/C(=N\OC(=O)CCc1ccccc1)c1cccc(Br)c1
  INS promoter inh: ·
  INS promoter inh cell count: ·
  GALR2 ag: -1.5
  RGS16-Gao HTS: 102
  PKD1 kinase inh: 16
  HSV replic up: i
  HSV replic up primary fold: 0.85

Oc1ccccc1C=NCC(O)c1ccccc1 (centres undefined)
  INS promoter inh: -19
  INS promoter inh cell count: 124
  GALR2 ag: -1.1
  RGS16-Gao HTS: 105
  PKD1 kinase inh: 8
  HSV replic up: i
  HSV replic up primary fold: 1

Next part.
Second line of a record – INS promoter inh | INS promoter inh cell count | GALR2 ag | RGS16-Gao HTS | PKD1 kinase inh | HSV replic up | HSV replic up primary fold
O=C1CS/C(=N\N=C\c2ccco2)N1c1ccccc1
  · | · | · | 100 | · | i | 0.56
CN(C(=O)CSc1nnc(-c2ccco2)n1N)C1CCCCC1
  · | · | · | 99 | -1 | i | 1
CCN(CC)CC(O)COC(c1ccccc1)c1ccccc1 (centres undefined)
  · | · | · | 104 | · | i | 1
CCOC(=O)C(Cc1ccc(NC(=O)/C(=C/c2ccc(OC(C)=O)cc2)NC(C)=O)cc1)N1C(=O)c2ccccc2C1=O (centres undefined)
  -65 | 102 | -0.9 | 95 | -4 | i | 1.1
O=C(NCCc1ccccc1)c1ccccc1F
  · | · | · | 106 | 1 | i | 1
CS(=O)(=O)N1Cc2ccccc2CC1C(=O)Nc1ccccc1C(N)=O (centres undefined)
  20 | 54 | -2.1 | 98 | -11 | i | 0.96
C=CCn1c(NC(=O)CC)c(C(=O)OCC)sc1=S
  -1 | 125 | -2.7 | 105 | -3 | · | ·
Cc1ccc(SCCNS(C)(=O)=O)cc1
  -10 | 161 | -2.6 | 100 | -1 | i | 0.91
O=C(CSc1nc(O)c(Cc2ccccc2)c(=O)[nH]1)N1CCOCC1
  · | · | · | 96 | · | i | 0.99
O=C1C2CCCN2C(c2cccc(F)c2)N1c1cccc(Cl)c1 (centres undefined)
  · | · | -1.9 | 102 | 1 | i | 1.3
COc1cc(NS(=O)(=O)c2ccc(N)cc2)nc(OC)n1
  -5 | 120 | -0.3 | 108 | -7 | i | 0.97
CCOC(=O)c1c(C)c(-c2ccccc2)n(CC(=O)NCCCN(CC)CC)c1C
  25 | 66 | · | 119 | -8 | i | 0.88
O=C(COC(=O)c1ccc2c(=O)n3c(nc2c1)CCC3)Nc1ccccc1F
  -219 | 151 | -0.7 | 104 | 5 | i | 1.1
Cc1nc2sc3c(c2c(=O)o1)CCCC3
  -12 | 144 | -1.3 | 92 | -5 | i | 1.1
COc1ccccc1C(=O)N/N=C(\C)CC(=O)Nc1ccc(Cl)cn1
  · | · | · | 101 | · | i | 0.96
O=C(O)CC1(CC(=O)Nc2cccc(C(F)(F)F)c2)CCCC1
  · | · | · | 95 | · | i | 1.1
Cc1cc(C)cc(Nc2ncc3c(n2)CCCC3=O)c1
  · | · | -0.3 | 95 | -1 | i | 0.93
CSc1nsc(SCC(=O)Nc2nc3ccccc3s2)n1
  11 | 71 | -0.5 | 97 | 3 | i | 1
CC(=Nc1cccc(O)c1)c1sc2ccccc2c1O
  -17 | 168 | -0.7 | 100 | -14 | · | ·
O=C1OCc2ccc(NS(=O)(=O)c3ccc(C(F)(F)F)cc3)cc21
  · | · | · | 103 | · | i | 1
O=C(c1ccco1)N(CC1CCCO1)c1nc(-c2ccccc2)cs1 (centres undefined)
  -11 | 99 | -1.4 | 91 | 9 | i | 0.83
COc1ccc(C(=O)NC2=C(C#N)CCC2)cc1OC
  -70 | 113 | 0.3 | 100 | -11 | i | 0.94
COc1cc(/C=C/C(=O)N2CCCC2)cc(OC)c1OC
  -29 | 79 | 0.9 | 97 | -5 | i | 1.1
Cn1cnc(S(=O)(=O)N2CCc3ccccc32)c1
  · | · | 0.1 | 95 | -20 | i | 0.95
O=C1CC(c2ccccc2Cl)c2c(sc3c(=O)[nH]c(CCl)nc23)N1 (centres undefined)
  · | · | · | 100 | · | i | 1.2
CCOC(=O)c1ccc(-c2cccc(C(F)(F)F)c2)nc1C
  -71 | 72 | -3.7 | 102 | -10 | i | 0.81
CCOC(=O)CSc1ccc2ccccc2n1
  · | · | · | 100 | 0 | i | 1.1
COC(=O)NCC(c1cccnc1)N1CCN(c2ccccc2)CC1 (centres undefined)
  · | · | -2.7 | 105 | -8 | i | 0.89
O=C(CCC(=O)N1CCN(c2ccccc2)CC1)Nc1nnc(C2CCCCC2)s1
  · | · | · | 98 | · | i | 0.88
CCCCc1ccc(S(=O)(=O)N2CCN(C(=O)c3ccco3)CC2)cc1
  -7 | 103 | 0.9 | 107 | 4 | i | 0.92
CCn1nc(C)cc1C(=O)N1CCCC(CCC(=O)NCc2ccccc2F)C1 (centres undefined)
  · | · | · | 96 | -5 | i | 1
Cc1ccc(NS(=O)(=O)c2cc(C(=O)N3CCOCC3)ccc2C)cc1
  33 | 111 | -1.3 | 93 | -4 | i | 0.78
Cc1nn(CC(=O)NCc2ccc(Cl)cc2)c(C)c1[N+](=O)[O-]
  13 | 161 | -0.8 | 104 | -8 | i | 0.98
COC(=O)c1ccc(COc2cccc(C)c2C)cc1
  · | · | · | 101 | 1 | i | 0.92
Cc1ccccc1OCC(=O)Nc1ccccc1-c1ccccc1NC(=O)COc1ccccc1C
  -45 | 164 | -1.3 | 117 | 10 | i | 1.1
CCCNC(=O)C(=O)Nc1ccc(N(C)C)cc1
  · | · | -1.9 | 84 | -9 | i | 0.95
O=C(Cc1c[nH]c2ccccc12)Nc1ccc(N2CCOCC2)cc1
  · | · | · | 97 | -4 | i | 0.93
COc1cccc2sc(Nc3nc(C)c(C(C)=O)s3)nc12
  · | · | -1.7 | 101 | -6 | i | 0.69
N#CC(c1ccccc1)N(CCCCl)C(=O)c1ccc(Br)cc1 (centres undefined)
  -60 | 117 | 0.2 | 45 | -13 | i | 0.92
O=C(NC1CCCC1)c1ccc(CSc2nc3ccncc3n2Cc2ccc(F)cc2)cc1
  -70 | 97 | -1.0 | 94 | 1 | i | 0.91
Cc1nc2ccccc2c2oc(C(=O)Nc3ccc4c(c3)OCCO4)cc12
  · | · | -0.3 | 73 | 0 | i | 0.93
C=CCn1c(SCC(=O)c2c(N)n(C)c(=O)n(C)c2=O)nnc1-c1ccccc1F
  · | · | · | 105 | -3 | i | 0.98
